Compound activity deposited in PubChem by Southern Research Institute.
Mtb H37Rv: Mycobacterium tuberculosis H37Rv growth inhibition, cell based, confirmatory dose response (AID 1949) | M. tuberculosis H37Rv growth inhibition | most inactive calls were filed without a number and no value below 0 was filed | inhibition, % at 10 µg/mL; hits with a dose series show IC50 in µg/mL | hit rate 1.6% among 100,000;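 active means confirmed in a dose series; inconclusive means about 50% or more but not retested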;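 further: bacteria grown 7 days with compound before Alamar blue readout; 0% = untreated bacteria and 100% = reference antibiotic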
The depositor's hits bear a star; i = inactive; ? = inconclusive. An excerpt; count on the stated rates, not on these rows.

A first look, 2 compounds:
SMILES | Mtb H37Rv
Cc1cccc(N2C(=O)N(c3ccccc3Cl)C3CS(=O)(=O)CC32)c1 (centres undefined) | i
CCCCC(=O)Nc1ccc(NCc2cc(Cl)c(OCc3ccccc3)c(OC)c2)cc1 | 3.8%

Results, from the start:
SMILES | Mtb H37Rv
Cc1cccc(N2C(=O)N(c3ccccc3Cl)C3CS(=O)(=O)CC32)c1 (centres undefined) | i
CCCCC(=O)Nc1ccc(NCc2cc(Cl)c(OCc3ccccc3)c(OC)c2)cc1 | 3.8%
Cc1ccccc1OCC(=O)Nc1ccc(O)cc1C(=O)O | i
N#C/C(=C\c1ccc(Br)cc1)c1nc2ccccc2s1 | i
C(=C\c1nc(-c2ccncc2)no1)/c1ccccc1 | i
O=C(CNS(=O)(=O)c1ccc(Br)cc1)Nc1ccc(Cl)cc1 | i
CCOc1ccccc1NC(=O)CN(Cc1ccccc1Cl)S(=O)(=O)c1ccc(Cl)cc1 | 3.0%
Cc1cc(=O)oc2cc(OCc3ccc(S(=O)(=O)Cc4ccccc4)cc3)ccc12 | i

Some of these compounds in order of length of the SMILES, ascending.
SMILES | Mtb H37Rv
C(=C\c1nc(-c2ccncc2)no1)/c1ccccc1 | i
CCCCC(=O)Nc1ccc(NCc2cc(Cl)c(OCc3ccccc3)c(OC)c2)cc1 | 3.8%
CCOc1ccccc1NC(=O)CN(Cc1ccccc1Cl)S(=O)(=O)c1ccc(Cl)cc1 | 3.0%

(cont.)
SMILES | Mtb H37Rv
Cc1ccc(NC(=S)Nc2cccc(F)c2)nc1 | i
CCCCc1cc(=O)oc2cc(OCc3ccc([N+](=O)[O-])cc3)c(Cl)cc12 | i
CCOC(=O)c1c(NC(=O)c2nn(CC)cc2Br)c(C#N)nn1-c1ccccc1 | i
COc1ccc(CCNC(=O)COc2c(C)cccc2C)cc1OC | 3.8%
Cc1cccc(C(=O)Nc2ccc(F)c(Cl)c2)c1[N+](=O)[O-] | i
COc1ccc(S(=O)(=O)N(C)CC(=O)N2CCN(c3ccccc3OC)CC2)cc1 | i
Cc1ccccc1OCCCCn1c(CCNC(=O)C(C)C)nc2ccccc21 | 13.4%
COc1ccc2nc(S(=O)(=O)O)[nH]c2c1 | i
CCOc1ccc2nc(NC(=O)CSc3ccccn3)sc2c1 | i
C=CCn1c(Cc2ccc(OC)cc2)nnc1SCC(=O)Nc1cccc(SC)c1 | i
CCOC(=O)c1c(NC(=O)CN2C(=O)c3cccc4cccc(c34)C2=O)sc2c1CCC2 | i
O=C(CCCOc1ccc(Cl)cc1)Nc1ccccc1F | 0.6%
Cc1ccc(-c2csc(-c3ccncc3)n2)cc1C | 1.85µg/mL*
O=C(NCCc1ccccc1F)C1CC(=O)N(c2ccccc2)C1 (centres undefined) | i
CCCc1ccc(OCc2ccc(C(=O)O)cc2)c(OC)c1 | i
CN1C(=O)C2N=NN(c3ccccc3)C2C1=O (centres undefined) | 3.4%
CCOC(=O)c1cccc(NC(=O)Nc2cccc(F)c2)c1 | i
CCOc1cc(/C=C2\SC(=Nc3ccccc3C)NC2=O)ccc1O | i
COc1nc2c(c(=O)n(C)c(=O)n2C)n1Cc1ccccc1F | i
Cc1cc(Br)ccc1OCCCCN1CCC(C)CC1 | i
Cc1ccc(C(=O)NC(=S)NC(C)C)cc1Br | 4.7%
C=CCn1c(SCC(=O)c2ccc(NC(C)=O)cc2)nnc1-c1ccncc1 | i
COc1ccc(-c2cc3ccccc3n2CC(O)CNCc2ccco2)cc1 (centres undefined) | i
O=C(CSc1n[nH]c(-c2ccco2)n1)N1CCCCC1 | i
CN(CC(=O)Nc1cccc(Br)c1)S(=O)(=O)c1ccc(F)cc1 | i
COc1ccc(CN2C(=O)N(c3ccccc3)C(=O)C2CC(=O)Nc2ccc(F)cc2)cc1 (centres undefined) | 0.9%
O=C(CCc1ccccc1)NC(=S)Nc1ccc2c(c1)C(=O)OC2 | i
O=C(c1ccco1)N1CCN(Cc2ccc(Cl)cc2)CC1 | 3.2%
COc1cccc(OCCCN2CCN(S(=O)(=O)c3ccc(NC(C)=O)cc3)CC2)c1 | 5.7%
Cc1c(NC(=O)c2ccccc2NC(=O)c2ccccc2)cccc1C(=O)O | i
CCCCOc1ccc(-c2nn(-c3ccccc3)cc2C2NC(=O)NC(C)=C2C(=O)OC)cc1 (centres undefined) | ?
CCCc1cc(=O)oc2c(C)c3occ(C)c3cc12 | i
CCc1ccc(Oc2nc([N+](=O)[O-])nn2C)cc1 | 1.13µg/mL*
CN1CCN(c2ccc(NC(=O)c3ccccc3Br)cc2)CC1 | 1.3%
O=C(COc1ccc([N+](=O)[O-])cc1)N1CCN(c2ccccn2)CC1 | i
COc1ccccc1CNC(=O)c1cc(Br)ccc1Cl | i
CCc1nnc(NS(=O)(=O)c2ccc(NCc3cc(Br)ccc3O)cc2)s1 | i
CC(C)CNC(=S)Nc1ccn(Cc2ccc(Cl)c(Cl)c2)n1 | i
O=S(=O)(Nc1ccc(O)c(Br)c1)c1cccs1 | i
O=c1[nH]c2ccc(S(=O)(=O)NCc3ccco3)cc2[nH]1 | i
COc1ccc(-c2csc(NC(=O)c3ccc(Cl)c(Cl)c3)n2)cc1 | 1.4%
Cc1cc2nc(SCC(=O)c3ccc(O)cc3)[nH]c2cc1C | 1.4%
COc1ccc(C(=O)NCc2ccc(Cl)c(Cl)c2)cc1OC | i
Cc1ccc(C(C)C)c(OCCCNCc2cccnc2)c1 | i
CCc1cc(=O)oc2c(C)c(OCc3cccc(Br)c3)ccc12 | i
O=C(CCc1ccccc1)N(Cc1cc2ccccc2[nH]c1=O)c1ccccc1 | i
CNC(=O)CCn1nc(-c2ccc(Cl)cc2)c2ccccc2c1=O | 1.9%
COc1ccccc1NC(=O)c1c(NC(=O)c2ccccc2Cl)sc2c1CCC2 | i
CC(C)c1ccc(C(=O)NC(C)c2ccccc2)cc1 (centres undefined) | i
O=C(Cc1ccccc1)Nc1c(C(=O)N2CCOCC2)cnn1-c1ccccc1 | i
Cc1nc2cc(NC(=O)N3CC4(C)CC3CC(C)(C)C4)ccc2n1C (centres undefined) | i
C=CCOc1ccc(C(=O)Nc2ccccc2C(N)=O)cc1 | 5.7%
Cc1c(NC(=O)N(C)c2ccccc2)c(=O)n(-c2ccccc2)n1C | i
CCc1ccc(S(=O)(=O)N(C(C)=O)c2ccc(OC(C)=O)cc2)cc1 | i
CCCCn1c(SCC(N)=O)nc2c(c1=O)C1(CCCCC1)Cc1ccccc1-2 | 6.0%
Cc1ccc(COc2ccccc2C2C3=C(CCCC3=O)NC3=C2C(=O)CCC3)cc1 | i

(more compounds)
SMILES | Mtb H37Rv
Cc1nnc(SCC(=O)c2ccc3c(c2)Cc2ccccc2-3)s1 | i
CCn1c(SCC(=O)Nc2cc(Cl)c(Cl)cc2Cl)nnc1-c1ccccc1Cl | 4.0%
CC1CCN(CC(=O)Nc2ccccc2Br)CC1 | i
CS(=O)(=O)N1CCN(c2ccc(NC(=O)c3ccc(Br)o3)cc2)CC1 | i
Cc1ccc(SCC(=O)Nc2ccc3c(c2)OCCO3)cc1 | i
CC(Oc1ccc(Br)cc1)C(=O)Nc1cc(Cl)ccc1O (centres undefined) | 18.4%
O=C(CCc1ccccc1)NCc1cccc(CNC(=O)CCc2ccccc2)c1 | i
CCCN(CCC)S(=O)(=O)c1ccc(NS(=O)(=O)c2ccc(C)cc2)cc1 | i
N#CCSc1nc(N2CCOCC2)nc(N2CCOCC2)n1 | i
Cc1cc(S(=O)(=O)Nc2ccccc2C(=O)O)ccc1F | i
COC(=O)c1ccc(NC(=O)c2cn(-c3ccccc3)nc2-c2ccc(C)cc2)cc1 | 0.5%
CCS(=O)(=O)N1CCC(C(=O)Nc2ccccc2OC)CC1 | 0.3%
CCOCCCNCc1ccc2c(c1)OCO2 | i
COC(=O)c1cccc(NC(=O)c2ccc(F)cc2)c1C | i
CCCCc1cc(=O)oc2cc(O)cc(O)c12 | i
CCCC(=O)NC(=S)Nc1cccc(C(F)(F)F)c1 | 2.69µg/mL*
COc1cccc(COc2ccc3c(C)c(Cc4ccccc4)c(=O)oc3c2)c1 | i
C=CCOc1ccc(CNC(C)C(O)c2ccccc2)cc1 (centres undefined) | i
NS(=O)(=O)c1ccc(NC(=S)N2CCN(c3cccc(Cl)c3)CC2)cc1 | i
CN(Cc1nc2ccccc2n1C)C(=O)c1ccco1 | i
CC(NC(=O)c1ccccc1NS(=O)(=O)c1cc(Cl)ccc1Cl)c1ccccc1 (centres undefined) | i
CN(c1ccccc1C(=O)N1CCC(Cc2ccccc2)CC1)S(C)(=O)=O | i
COc1cc2c(cc1NC(=O)c1ccccc1SCc1ccccc1)oc1ccccc12 | 2.9%
Cc1ccc(-c2nnc(N3CCN(c4ccccn4)CC3)c3ccccc23)cc1 | ?

Next part
Molecule | Mtb H37Rv
COc1ccc(NC(=O)COc2ccc(C(C)C)cc2Br)c([N+](=O)[O-])c1 | i
COc1ccc(-c2nc3ccccc3c(=O)n2CCN2CCOCC2)cc1 | i
COc1ccc(C(=O)Nc2nc(C)c(C(C)=O)s2)c(OC)c1 | 0.8%
CSc1nnc(NC(=O)CCCN2C(=O)c3cccc4cccc(c34)C2=O)s1 | i
S=C(NCc1cccnc1)Nc1ccc(Oc2ccccc2)cc1 | i
COc1ccccc1OCCOCCn1c(-c2ccc(Cl)cc2Cl)nc2ccccc2c1=O | 3.6%
COc1cc(NS(=O)(=O)c2ccc(NC(=O)NC3CCCCC3)cc2)nc(OC)n1 | i
N#C/C(=C/c1ccc(Br)o1)c1ccc(F)cc1 | 0.3%
CCOC(=O)c1sc(NC(=O)c2ccc(OC(C)C)cc2)c(C(=O)OCC)c1C | i
CCN(CC)c1ccc(NC(=O)COc2ccc(Br)cc2)c(C)c1 | i
CCSc1ccccc1C(=O)N1CC(C)OC(C)C1 (centres undefined) | 0.5%
CCOC(=O)c1ccccc1NC(=O)Nc1ccc(F)cc1 | i
CCc1c(C(=O)NNC(=S)Nc2ccc(Br)cc2Cl)csc1C | i
COC(=O)Nc1cc(Cl)ccc1OC | i
Cc1ccccc1-c1nc(C#N)c(NC2CC2)o1 | i
CCc1ccccc1N(CC(=O)Nc1cccc(C)c1C)S(=O)(=O)c1ccc(C)cc1 | 0.4%
COc1ccc(CNC(=O)C(C)Oc2ccc(OC)cc2)cc1 (centres undefined) | i
CC1CCc2cc(F)ccc2N1C(=O)c1ccc(Cl)s1 (centres undefined) | i
CCOc1cc(/C=C(\C#N)c2nc3ccccc3[nH]2)ccc1OC(=O)c1cccs1 | 2.5%
O=C(NCCc1ccccc1)c1cc2ccccc2o1 | i
COC(=O)c1c(NC(=O)COc2ccc(Cl)cc2Cl)sc(C)c1C | i
O=C(Cn1cnc2sc(-c3ccccc3)cc2c1=O)NCc1ccccc1 | i
CC12CCC(C(=O)N3CCOCC3)(OC1=O)C2(C)C (centres undefined) | i
CCOc1ccc(-n2c(SCC(=O)Nc3ccc4c(c3)OCCO4)nnc2-c2cccnc2)cc1 | i
CC(C)OC(=O)CSc1nc2c(cc1C#N)CCCCC2 | 0.3%
O=C(COc1cc(Cl)c(Cl)cc1Cl)NCc1cccnc1 | i
O=C(Oc1cccc2cccnc12)c1ccc2c(c1)OCCO2 | i
N#Cc1ccc(NC(=S)N2CCN(c3ccccc3F)CC2)cc1OC(F)F | i
COc1ccccc1CNC(=O)COc1ccc(Br)cc1C | i
CC(c1ccccc1)n1c(=S)[nH]c2ccccc21 (centres undefined) | i
Cc1ccc(N(CC(=O)Nc2ccccc2F)S(=O)(=O)c2ccc(Cl)cc2)cc1C | 6.3%
N#CCCN(CC1COc2ccccc2O1)C(=O)c1ccccc1 (centres undefined) | i
O=C1CC(c2cccc(Cl)c2)Cc2nc(N3CCOCC3)ncc21 (centres undefined) | 3.8%
CCOc1ccccc1N1C(=O)CC(Sc2nccc(C)n2)C1=O (centres undefined) | i
COC(=O)Nc1nnc(COc2ccc(C3CCCCC3)cc2)s1 | 1.8%
CC1CN(C(=O)COc2ccccc2Cl)CC(C)O1 (centres undefined) | i

Random excerpt: seven records from the list.
Molecule | Mtb H37Rv
COc1ccccc1CNC(=O)COc1ccc(Br)cc1C | i
N#CCCN(CC1COc2ccccc2O1)C(=O)c1ccccc1 (centres undefined) | i
O=C1CC(c2cccc(Cl)c2)Cc2nc(N3CCOCC3)ncc21 (centres undefined) | 3.8%
CC1CN(C(=O)COc2ccccc2Cl)CC(C)O1 (centres undefined) | i
O=C(Oc1cccc2cccnc12)c1ccc2c(c1)OCCO2 | i
Cc1ccc(N(CC(=O)Nc2ccccc2F)S(=O)(=O)c2ccc(Cl)cc2)cc1C | 6.3%
COC(=O)Nc1nnc(COc2ccc(C3CCCCC3)cc2)s1 | 1.8%

More structures:
Molecule | Mtb H37Rv
CC1(C)Cc2nc3sc4c(=O)n(Cc5ccccc5)cnc4c3cc2CS1 | 15.2%
COC(=O)c1cc(NC(=O)c2cc(C)cc(C)c2)cc(C(=O)OC)c1 | i
Cc1ccc(S(=O)(=O)N(CC(=O)Nc2ccccc2Cl)c2cccc(C(F)(F)F)c2)cc1 | i
CC(=O)Nc1ccc2oc(-c3cc(F)c(F)cc3Cl)nc2c1 | i
O=C(Cc1ccc2ccccc2c1)NC1CC1 | i
CCc1cccc(C)c1NC(=O)CSc1nnc(NC(=O)c2ccccc2F)s1 | i
O=c1[nH]c(SCc2c(Cl)ccc(Cl)c2Cl)nc2ccccc12 | i
COc1ccccc1OCC(=O)Nc1sc(Cc2ccccc2)c(C)c1C(N)=O | i
C=CCn1c(SCC(=O)Nc2ccc([N+](=O)[O-])cc2C)nnc1-c1ccc(Br)cc1 | i
COC(=O)C1=C(C)Nc2c(c(=O)n(C)c(=O)n2C)C1c1ccccc1[N+](=O)[O-] (centres undefined) | i
CC(=O)NC(c1ccc(Cl)cc1Cl)c1cc(Cl)c2cccnc2c1O (centres undefined) | 28.7%
C=CCc1ccccc1OCC(O)CN1CCN(C(=O)OCC)CC1 (centres undefined) | i
CCOCC(=O)Nc1nnc(COCC)s1 | i
CCC(C)N1CCN(C(=O)c2cc(OC)cc(OC)c2)CC1 (centres undefined) | i
CCn1ccc(C(=O)Nc2ccc(Cl)cc2Cl)n1 | i
CCc1ccccc1OCC(=O)Nc1ccc(S(=O)(=O)Nc2nc(C)cc(C)n2)cc1 | i
CC(NC(=O)c1ccc(Br)s1)C1CCCO1 (centres undefined) | i
c1cc(-c2nnc3sc(-c4ccc5c(c4)OCO5)nn23)ccn1 | i
COc1ccc(C(=O)Nc2ccc(Br)c(C)n2)cc1Cl | i
